Screening data deposited in PubChem by National Center for Advancing Translational Sciences (NCATS).
LASV entry inh: inhibitors of Lassa virus binding or entry into cells. Potency, µM (titrated, usually from 49.2 µM), without a hit: at the top dose activity change, negative = inhibition, usual class: inhibitors. 18,000 compounds, 4.1% hits. Lassa virus pseudotyped entry inhibition, cell-based qHTS; control for the full effect not named in the record; many of its hits are not listed in these tables; active = well fitted inhibition curve with a large enough effect; inconclusive = small, poorly fitted or top-dose-only effect; inactive = no such curve, though single readings can be large or run the other way; tested in HEK293 cells; note: luciferase read-out
Marburg entry: Marburg virus entry inhibition. Marburg virus pseudotype entry/binding inhibition, cell-based; control for the full effect not named in the record; many of its hits are not listed in these tables. 18,000 compounds, 6.5% hits. Potency, µM (series often up to 49.2 µM), for inactives: at the highest dose activity change, negative = inhibition, actives largely listed as inhibitors; active means well fitted inhibition curve with a large enough effect; inconclusive means small, poorly fitted or top-dose-only effect; inactive means no such curve, though single readings can be large or run the other way; tested in HEK293 cells; note: luciferase read-out
The depositor's hits bear a star; ? = inconclusive; / = not tested or not shown; & = joins results of further samples; [ ] = dose if it differs, or a comment. % is set by controls: 0 for no effect and ±100 for the full control effect; potency is the fitted concentration of half-maximal effect.

COc1cc(OC)c2c(-c3ccccc3)cc(=O)oc2c1C(CCN1CCOCC1)c1ccc2c(c1)OCO2 (stereo unspecified)
  LASV entry inh: ?; Marburg entry: 10µM*
COC(=O)C1=C(C)N(Cc2ccccc2)C(=O)NC1CCc1ccccc1 (stereo unspecified)
  LASV entry inh: 6%[8.59 µM]; Marburg entry: 23%[8.59 µM]
NC[C@@H]1CC[C@@H](N)[C@@H](O[C@H]2[C@H](O)[C@@H](O[C@H]3O[C@H](CO)[C@@H](O)[C@H](N)[C@H]3O)[C@H](N)C[C@@H]2N)O1
  LASV entry inh: -8%; Marburg entry: 7%
CC(C)(CO)[C@@H](O)C(=O)NCCC(=O)NCCSSCCNC(=O)CCNC(=O)[C@H](O)C(C)(C)CO
  LASV entry inh: -13%; Marburg entry: -13%
CC1(C)S[C@@H]2[C@H](N=CN3CCCCCC3)C(=O)N2[C@H]1C(=O)O
  LASV entry inh: 4%; Marburg entry: 4%
CCCCCCCc1cc2ccccc2c2c(C(=O)OCC)c(C(=O)OCC)c(C(=O)OCC)n12
  LASV entry inh: 10%[8.59 µM]; Marburg entry: -5%[8.59 µM]
OC[C@@H](O)C(O)[C@@H](O)CO (stereo partly specified)
  LASV entry inh: -7%; Marburg entry: 10%
O=C(NCCN1CCOCC1)c1cnn(-c2nccc(-c3cccs3)n2)c1C1CC1
  LASV entry inh: 4%; Marburg entry: 6%
Oc1cccc(O)c1O
  LASV entry inh: -8%; Marburg entry: ?
Cc1ccc(-c2ccc(CN3C(C(C)C)C(=O)N(Cc4cn(CCC5OCCO5)nn4)CCS3(=O)=O)cc2)cc1 (stereo unspecified)
  LASV entry inh: /; Marburg entry: ?

O=C(NC(=O)c1c(F)cccc1F)Nc1cc(Cl)c(OC(F)(F)C(F)C(F)(F)F)cc1Cl (stereo unspecified)
  LASV entry inh: -9%&-4%; Marburg entry: 6%&16%
O=C(NC1CC1)[C@@H]1C[C@@H](Sc2nc3ccccc3[nH]2)CN1CC1CCCCC1
  LASV entry inh: ?; Marburg entry: -12%
O=C(NCc1ccncc1)c1cnn(-c2ncc3c(n2)-c2ccccc2CC3)c1C1CC1
  LASV entry inh: -2%; Marburg entry: ?
Cc1cc(C(=O)Nc2ccccc2-c2nc(CNC(=O)c3cc4ccccc4cn3)c(C)o2)c(C)o1
  LASV entry inh: -4%; Marburg entry: 4%
Cc1cc(C(C)(C)C)c(O)c(C(C)(C)C)c1
  LASV entry inh: -8%&2%; Marburg entry: -7%&-9%
CCC1C(=O)NCCN1Cc1ccc2c(c1)CN(Cc1cc(OC)c3c(c1)OCO3)CCO2 (stereo unspecified)
  LASV entry inh: -13%; Marburg entry: -10%
[O]=[Bi][O][Bi]=[O]
  LASV entry inh: -18%; Marburg entry: 5%
C[C@@H]1CN(c2c(F)c(N)c3c(=O)c(C(=O)O)cn(C4CC4)c3c2F)C[C@H](C)N1
  LASV entry inh: -2%&4%; Marburg entry: 13%&3%
COc1ccc2c(c1OC)CN1CCc3cc4c(cc3C1C2)OCO4 (stereo unspecified)
  LASV entry inh: 6%[17.8 µM]; Marburg entry: 2%[17.8 µM]
O=S(=O)(O)Oc1ccc(C(c2ccc(OS(=O)(=O)O)cc2)c2ccccn2)cc1
  LASV entry inh: 0%; Marburg entry: 9%

CC(C)(C)c1ccc(S(=O)(=O)N[C@H]2CC[C@@H](n3cc(C(=O)N4CCCC4)nn3)CC2)cc1
  LASV entry inh: -7%; Marburg entry: 7%
CC1(C)CCC[C@@](C)([C@H]2CC[C@]3(C)[C@@H]2[C@H](O)C[C@@H]2[C@@]4(C)CC[C@H](O)C(C)(C)[C@@H]4[C@@H](O)C[C@]23C)O1
  LASV entry inh: 2%; Marburg entry: ?
C[C@H]1COc2cc(F)ccc2S(=O)(=O)N1
  LASV entry inh: -11%; Marburg entry: ?
CCCCC[C@H](O)/C=C/[C@@H]1[C@@H](C/C=C\CCCC(=O)O)[C@@H](O)C[C@H]1O
  LASV entry inh: 4%; Marburg entry: 5%
Cc1cccc(-c2[nH]ncc2-c2ccc3ncccc3n2)n1
  LASV entry inh: 9%; Marburg entry: -21%
COc1cc(S(C)=O)ccc1-c1nc2ncccc2[nH]1 (stereo unspecified)
  LASV entry inh: 2%; Marburg entry: -17%
COc1ccc2[nH]c(=O)c3c(c2c1)OC(C)(C)C=C3
  LASV entry inh: -7%&-11%; Marburg entry: -3%&4%
O=c1c(O)c(-c2ccc(O)c(O)c2)oc2cc(O)ccc12
  LASV entry inh: -1%&6%; Marburg entry: 15%&27%
CS(=O)(=O)Nc1c(O)ccc2c1CCC[C@H]2C1=NCCN1
  LASV entry inh: 2%; Marburg entry: -7%
NC(C(=O)O)c1cc(=O)[nH]o1 (stereo unspecified)
  LASV entry inh: -3%; Marburg entry: 10%

Three structures out of the list, arranged by formula weight, high to low:
CC(C)(CO)[C@@H](O)C(=O)NCCC(=O)NCCSSCCNC(=O)CCNC(=O)[C@H](O)C(C)(C)CO
  LASV entry inh: -13%; Marburg entry: -13%
O=C(NC(=O)c1c(F)cccc1F)Nc1cc(Cl)c(OC(F)(F)C(F)C(F)(F)F)cc1Cl (stereo unspecified)
  LASV entry inh: -9%&-4%; Marburg entry: 6%&16%
Cc1cc(C(=O)Nc2ccccc2-c2nc(CNC(=O)c3cc4ccccc4cn3)c(C)o2)c(C)o1
  LASV entry inh: -4%; Marburg entry: 4%

Next part:
O=C1CCCC=C1C(O)CCOCc1ccccc1 (stereo unspecified)
  LASV entry inh: 16%[8.59 µM]; Marburg entry: 7%[8.59 µM]
CC(C(=O)O)c1ccc(C2CCCCC2)c2ccccc12 (stereo unspecified)
  LASV entry inh: -17%; Marburg entry: 0%
CC(C)C1C(=O)N(Cc2cn(CCC3OCCO3)nn2)CCS(=O)(=O)N1Cc1ccc(-c2ccc(F)cc2Cl)cc1 (stereo unspecified)
  LASV entry inh: /; Marburg entry: ?
O=C1NC(c2cccc([N+](=O)[O-])c2)=CCN1c1ccccc1O
  LASV entry inh: 5%; Marburg entry: 8%
COc1cccc([C@@H]2Oc3ccc(OC)cc3C(=O)[C@H]2OC(=O)NCCc2ccc(OC)c(OC)c2)c1
  LASV entry inh: 45%[activator]; Marburg entry: 70%[activator]
CC(C)(S)[C@H](N)C(=O)O
  LASV entry inh: -10%; Marburg entry: 18%
Cn1ccc2cc(NC(=O)Nc3cccnc3)ccc21
  LASV entry inh: -7%&37%; Marburg entry: 12%&26%
COc1cc(CNC(=O)c2cnn(-c3ncc4c(n3)-c3ccccc3CC4)c2C)cc(OC)c1OC
  LASV entry inh: 1%; Marburg entry: 0%
CN(C)C1C(=O)C(C(N)=O)=C(O)[C@@]2(O)C(=O)C3=C(O)c4c(O)ccc(Cl)c4C(O)[C@H]3C[C@@H]12 (stereo partly specified)
  LASV entry inh: 6%; Marburg entry: 6%
C=CCOC(=O)N[C@H](/C(C(=O)OC)=C(\C)NCc1ccccc1)c1cccc(OC)c1
  LASV entry inh: 12%; Marburg entry: 9%

O=c1[nH]cnc2c1ncn2C1CC(O)C(CO)O1 (stereo unspecified)
  LASV entry inh: 7%; Marburg entry: 1%
COc1ccc(CNc2nc(NCc3ccc(OC)cc3)c3ncn(C4CCCCC4)c3n2)cc1
  LASV entry inh: ?; Marburg entry: 3.5µM*
COC(=O)[C@@H]1[C@@H](c2ccccc2)NC(=O)N(Cc2ccccc2)[C@@H]1C
  LASV entry inh: 5%[8.59 µM]; Marburg entry: -5%[8.59 µM]
O=C1CCC(c2ccccc2)(C2CCN(Cc3ccccc3)CC2)C(=O)N1 (stereo unspecified)
  LASV entry inh: 2%&-25%; Marburg entry: ?
Cc1cccc(C)c1NC(=O)CN1CCCCCC1
  LASV entry inh: -6%; Marburg entry: 7%
OCC1OC(n2cnc3c(=S)nc[nH]c32)C(O)C1O (stereo unspecified)
  LASV entry inh: ?; Marburg entry: 3.5µM*
Oc1cc(-c2nc3ccccc3s2)cc2c1OCCN(Cc1cn[nH]c1-c1ccc(Cl)cc1)C2
  LASV entry inh: -27%; Marburg entry: -12%
CC1(C)[C@H](C=C(Cl)Cl)[C@H]1C(=O)OCc1c(F)c(F)cc(F)c1F
  LASV entry inh: -7%; Marburg entry: 8%
COc1ccc(C(=O)C2C3C4COC(O4)C(=O)C3C3C=Cc4ccccc4N32)c(OC)c1 (stereo unspecified)
  LASV entry inh: ?; Marburg entry: -11%
O=S1(=O)c2cccc(Cl)c2OC[C@H](c2ccccc2)N1Cc1ccc(F)cc1F
  LASV entry inh: -6%; Marburg entry: ?

Cc1ccc(C(O)C2=CCCC2=O)cc1 (stereo unspecified)
  LASV entry inh: -3%; Marburg entry: ?
C[C@]12Cc3nonc3C[C@@H]1CC[C@@H]1[C@@H]2CC[C@@]2(C)[C@H]1CC[C@]2(C)O
  LASV entry inh: -27%; Marburg entry: -6%
CC(C)C[C@@H](CC(=O)N[C@@H](CCC(=O)O)CC(=O)O)NC(=O)[C@@H]1CCCC[C@H]1NC(=O)C[C@H](CCCN)NC(=O)C[C@H](CO)NC(=O)[C@@H]1CNCC[C@H]1N
  LASV entry inh: 7%; Marburg entry: -9%
NC[C@@H]1O[C@H](O[C@H]2[C@@H](O)[C@H](O[C@@H]3[C@@H](O)[C@H](N)C[C@H](N)[C@H]3O[C@H]3O[C@H](CO)[C@@H](O)[C@H](O)[C@H]3N)O[C@@H]2CO)[C@H](N)[C@@H](O)[C@@H]1O
  LASV entry inh: -4%; Marburg entry: 9%
O=C(Cc1cccs1)N[C@@H]1C(=O)N2C(C(=O)[O-])=C(C[n+]3ccccc3)CS[C@H]12
  LASV entry inh: -10%; Marburg entry: ?
COc1cccc(CN2CCC3(CC2)c2ccccc2[C@@H](NC(=O)c2ccccc2)[C@@H]3O)c1O
  LASV entry inh: -16%; Marburg entry: ?
NCCC[C@@H](CC(=O)N[C@@H]1CCCC[C@H]1C(=O)N[C@H](CC(=O)N[C@@H](CCC(=O)O)CC(=O)O)Cc1ccccc1)NC(=O)C[C@H](CO)NC(=O)[C@@H]1CCCC[C@H]1N
  LASV entry inh: -16%; Marburg entry: 17%
O=[N+]([O-])c1cc2nc(O)c(O)nc2cc1[N+](=O)[O-]
  LASV entry inh: ?; Marburg entry: -20%
CCCCCC(=O)N1C[C@H](n2cc(COC(=O)c3ccccc3)nn2)[C@@H](O)C[C@H]1c1ccc(Cl)cc1
  LASV entry inh: -9%; Marburg entry: -29%
CC(N)Cc1ccc(O)cc1 (stereo unspecified)
  LASV entry inh: -6%; Marburg entry: 12%

Cc1cc2oc(=O)cc(CN3CCCCC3)c2cc1Cl
  LASV entry inh: 29%; Marburg entry: 19%
C/C(O)=C(\C#N)C(=O)Nc1cc(Br)ccc1Br
  LASV entry inh: -3%&1%; Marburg entry: 11%&2%
CCCCN1CC(COCc2ccccc2)Oc2cccc(F)c2S1(=O)=O (stereo unspecified)
  LASV entry inh: 14%; Marburg entry: -8%
O=C1CC(O)(CF)CCO1 (stereo unspecified)
  LASV entry inh: 4%; Marburg entry: -4%
COc1cccc([C@@H]2Oc3ccc(OC)cc3C[C@H]2OC(=O)NCc2ccco2)c1
  LASV entry inh: 21%; Marburg entry: 22%
CN(C)C(=O)[C@@H]1C[C@@H](Sc2nc3ccccc3[nH]2)CN1Cc1ccnc2ccccc12
  LASV entry inh: 10%; Marburg entry: -2%
Cc1ccc(S(=O)(=O)N2CCC(=O)N([C@H](COCc3cccc(C(F)(F)F)c3)C(C)C)CC2)cc1
  LASV entry inh: -3%; Marburg entry: ?
C#CCn1c(=O)c2c(nc(/C=C/c3cccc(OC)c3)n2C)n(CCCO)c1=O
  LASV entry inh: -14%; Marburg entry: 7%
CCCC[C@]12Cc3c(ccc4ccccc34)[C@H](O1)C1=C(O2)C(=O)c2ccccc2C1=O
  LASV entry inh: 14%[8.59 µM]; Marburg entry: 22%[8.59 µM]
c1ccc2[nH]c(-c3cscn3)nc2c1
  LASV entry inh: 54%[activator]; Marburg entry: 18%

Single records, from the list above.
Listed for `C/C(O)=C(\C#N)C(=O)Nc1cc(Br)ccc1Br` = LASV entry inh: -3%&1%; Marburg entry: 11%&2%
Listed for `C#CCn1c(=O)c2c(nc(/C=C/c3cccc(OC)c3)n2C)n(CCCO)c1=O` = LASV entry inh: -14%; Marburg entry: 7%
Listed for `CN(C)C(=O)[C@@H]1C[C@@H](Sc2nc3ccccc3[nH]2)CN1Cc1ccnc2ccccc12` = LASV entry inh: 10%; Marburg entry: -2%

By substructure, those above containing a nitro group on carbon (2)
O=C1NC(c2cccc([N+](=O)[O-])c2)=CCN1c1ccccc1O
  LASV entry inh: 5%; Marburg entry: 8%
O=[N+]([O-])c1cc2nc(O)c(O)nc2cc1[N+](=O)[O-]
  LASV entry inh: ?; Marburg entry: -20%

Next entries follow:
COc1ccc([C@]23Cc4cc(C#N)ccc4[C@H](O2)c2c(c4ccc(OC)cc4oc2=O)O3)cc1
  LASV entry inh: 27%&2%[8.59 µM]; Marburg entry: ?
C[C@@](N)(C(=O)O)c1ccc(C(=O)O)cc1
  LASV entry inh: -1%&9%&2%; Marburg entry: 7%&-3%&8%
COC1C(O)CC(=O)OC(C)C/C=C/C=C/[C@@H](OC2CCC(N(C)C)C(C)O2)C(C)C[C@@H](CC=O)[C@@H]1O[C@H]1OC(C)[C@H](O[C@@H]2C[C@@](C)(O)C(O)C(C)O2)C(N(C)C)C1O (stereo partly specified)
  LASV entry inh: -20%; Marburg entry: 6.3µM*
Cc1ncc2c(c1CNC(=O)c1cncs1)CCN(C(=O)c1ccc(C(F)(F)F)cc1)C2
  LASV entry inh: -11%; Marburg entry: ?
CC(C)(Oc1ccc(C2CC2(Cl)Cl)cc1)C(=O)O (stereo unspecified)
  LASV entry inh: -1%; Marburg entry: 7%
O=C(N[C@H]1CCCc2ccccc21)O[C@@H]1C(=O)c2cc(Br)ccc2O[C@H]1c1ccc2c(c1)OCO2
  LASV entry inh: -6%; Marburg entry: 22%
